High-throughput results: PubChem BioAssay, ICCB-Longwood Screening Facility, Harvard Medical School
MgrA DNA FP: S. aureus MgrA-DNA binding modulation; fluorescence polarization; inhibition, %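 (about 10 µg/mL by stock and volumes)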; 84,000 compounds, 0.13% hits;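 active = above 50% in either of two replicates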;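 also: 0% = protein plus DNA without compound and 100% = DNA alone without protein; higher means less MgrA bound to DNA so lower polarization; one replicate is shown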
Sa helicase inh: blocks Staphylococcus aureus DNA helicase. purified S. aureus helicase, fluorescence unwinding assay; about half of the hits fall short of the stated cut. inhibition, %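 (tested at about 80 µM)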. 120,000 compounds, 0.05% hits;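 active = both duplicates at 50% or more, or one of them with a favoured structure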;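 also: 0% = mean of negative control wells and 100% = mean of positive control wells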
The depositor's hits bear a star; . = not tested or not shown.

Fields: MgrA DNA FP	Sa helicase inh
- CC1(C)C(=O)Nc2ccccc2N1C(=O)Cn1nc(C(=O)O)c2ccccc2c1=O
    .	7
- CN(C)S(=O)(=O)c1cccc(C(=O)OCC(=O)c2ccc[nH]2)c1
    .	-7
- O=C(Cn1cnc2ccc(Cl)cc2c1=O)N(c1ccccc1)C1CCS(=O)(=O)C1 (centres undefined)
    .	-10
- Cc1nc2ccccc2nc1SC(C(=O)O)c1ccccc1 (centres undefined)
    .	9
- COC(=O)c1cc(CC#N)c(C)o1
    .	-1
- CCN(CC)C(=O)c1csc(Nc2ccc(OC)cc2)n1
    0.4	-2
- O=C(O)c1ccc(Nc2ncnc3c2cnn3Cc2ccccc2)cc1
    2.9	11
- CCOC(=O)c1ccc(-c2c(C)oc3cc(OC)c(CC)cc3c2=O)o1
    .	-6
- CS(=O)(=O)CC(=O)Nc1ccc2nc3n(c(=O)c2c1)CCCCC3
    .	-2
- CCCCN1C(=O)c2ccc(C(=O)OCc3csc(C)n3)cc2C1=O
    .	-5
- CS(=O)(=O)c1ccc(C(=O)O)s1
    -3.0	.
- CC(Oc1ccccc1-c1ccccc1)c1n[nH]c(=S)n1-c1ccccc1 (centres undefined)
    -3.3	.
- Cc1ccc(C)n1-c1cccnc1
    2.0	-2
- COc1ccccc1CNC(=O)C1CCCN1c1nn2c(=O)cc(C)nc2s1 (centres undefined)
    0.2	0
- CCOC(=O)c1c(C)[nH]c(C)c1C(=O)CN1C(=O)NC(CC(C)C)C1=O (centres undefined)
    .	-17
- CN(CC(=O)NC1CCCc2ccccc21)c1nnc(N2CCCC2=O)s1 (centres undefined)
    .	16
- O=[N+]([O-])c1cc(N=Cc2nc(-c3ccccc3Br)oc2O)ccc1Cl
    2.9	.
- Cc1ccc(-c2ccc(=O)[nH]n2)cc1S(=O)(=O)N1CCOCC1
    .	-15
- Cn1cccc1/C=C/C(=O)Oc1ccc2ccc(=O)oc2c1
    .	2
- Cc1ccc(S(=O)(=O)N2CCC(N(C)CCC(C)C)CC2)cc1
    2.0	10

Sorted by count of non-hydrogen atoms (lowest first): part of the list above
Fields: MgrA DNA FP	Sa helicase inh
- COC(=O)c1cc(CC#N)c(C)o1
    .	-1
- Cn1cccc1/C=C/C(=O)Oc1ccc2ccc(=O)oc2c1
    .	2
- CCOC(=O)c1c(C)[nH]c(C)c1C(=O)CN1C(=O)NC(CC(C)C)C1=O (centres undefined)
    .	-17

Next section:
Fields: MgrA DNA FP	Sa helicase inh
- CCC(=O)N1CCc2cc(S(=O)(=O)CCC(=O)NCc3cccs3)ccc21
    0.1	12
- COCc1nnc(NC(=O)/C=C/c2cc(OC)c(OC)c(OC)c2)s1
    13	7
- Cc1ccc(CNC(=O)CCc2c(C)nc3c4cccnc4nn3c2C)cc1
    -1.5	8
- CC(Sc1nc2ccccc2c(=O)n1C)C(=O)NC(N)=O (centres undefined)
    .	-1
- COc1ccc(CNC(=O)c2ccc(N3CCCS3(=O)=O)cc2)cc1
    0.5	10
- O=C(O)C1C2C=CC(C2)C1C(=O)Nc1ccc(-c2cnco2)cc1 (centres undefined)
    -0.4	.
- Cc1cc2ccccc2n1CC(=O)Nc1cccc(C(=O)NC2CC2)c1
    .	-15
- Cc1ccc(C)c(NC(=O)CC(NCCc2ccccc2)C(=O)O)c1 (centres undefined)
    .	-12
- COc1ccc(-c2cc(C(=O)NC3CCCC3)no2)cc1
    .	6
- CC(=O)Nc1ccc(CN2CCN(C/C=C/c3ccccc3)CC2)cc1
    -2.3	-4

By substructure, the entries above with a furan ring, fused or not
Fields: MgrA DNA FP	Sa helicase inh
- COC(=O)c1cc(CC#N)c(C)o1
    .	-1
- CCOC(=O)c1ccc(-c2c(C)oc3cc(OC)c(CC)cc3c2=O)o1
    .	-6

(cont.)
Fields: MgrA DNA FP	Sa helicase inh
- Cc1nn(Cc2ccc(F)cc2)c2sc(C(=O)Nc3ccc(N4CCOCC4)cc3N3CCOCC3)cc12
    .	-12
- N#C/C=C1\n2c(nc3ccccc32)OC12CCCCC2
    -0.7	-2
- COC(=O)C1=C(O)CCN(C)C1
    .	11
- CCCCN(C(=O)c1cn(-c2ccc(OC)cc2)c(=O)c2ccccc12)C1CCN(C(C)=O)CC1
    0.6	-8
- COc1ccccc1Nc1nc2ccccc2[nH]1
    .	1
- Cc1cc(C)c(C#N)c(SC2CCCCC2=O)n1 (centres undefined)
    2.3	0
- COc1cc(OC)cc(C(=O)NC(C)(C)CO)c1
    .	2
- COc1ccc(C2CC(=O)C3=C(C2)NC(C)=C(C(=O)OC2CCCC2)C3c2cc(OC)ccc2OC)cc1 (centres undefined)
    1.7	.
- COC(OC)c1ccc(C#N)c(SCc2ccc(C)cc2)n1
    -0.4	.
- CC(C)OC(=O)CSc1nc2c(c(-c3ccc(O)cc3)c1C#N)CCCC2
    -1.1	.
- c1ccc2c(c1)c(NCc1ccc3c(c1)OCO3)nn1cnnc21
    .	-26
- CN(C)c1ccc(/C=C/CN2CCSCC2)cc1
    -2.4	-8
- N#C/C(=C\C=C\c1ccccc1)c1nc2ccccc2c(=O)[nH]1
    8.1	7
- CC(CC(=O)NCc1ccccc1)S(=O)(=O)c1ccc2c(c1)NC(=O)CS2 (centres undefined)
    .	-34
- Cc1ccc(-n2nc(C)cc2NC(=O)c2ccco2)cc1
    -1.3	-17
- CC(NS(=O)(=O)c1ccc(F)cc1)C(c1cccs1)N1CCN(c2ccccc2)CC1 (centres undefined)
    .	3
- O=C1NC(=Nc2ccc(F)cc2)CS1
    .	7
- CCCCc1ccc(C(=O)Nc2ccc(NC(=O)c3ccc(CCCC)cc3)c3c2C(=O)c2ccccc2C3=O)cc1
    -0.4	.
- COc1ccc(-c2cc(C(N)=O)on2)c(OC)c1
    2.8	3
- COC(=O)C1=C(N)OC2=C(C(=O)CCC2)C1c1cccnc1 (centres undefined)
    .	14

Further compounds follow:
SMILES	MgrA DNA FP	Sa helicase inh
C(=N\OCc1nc2c3cnn(-c4ccccc4)c3ncn2n1)/c1ccccc1	.	-7
O=C(NC(Cc1ccccc1)C(=O)N1CCN(c2ncccn2)CC1)c1ccco1 (centres undefined)	.	-14
COC(=O)c1ccc(-c2ccco2)n1Cc1cccc(C)c1	.	-18
C=C(C)Cn1c(C2CC(=O)N(c3cc(OC)ccc3OC)C2)nc2ccccc21 (centres undefined)	.	-18
O=c1n(Cc2ccccc2)nc2n1-c1ccccc1SC2	.	2
O=C(OCc1ccc(-c2cc(C(F)(F)F)cc(C(F)(F)F)c2)o1)c1cccs1	4.7	.
CCC(C)c1ccc(OCCCN2CCN(C)CC2)cc1 (centres undefined)	-2.9	3
CNc1nc(SCc2ccccc2)nc(N2CCOCC2)n1	-1.1	2
Cc1c(-c2ccccc2)oc2c(C(=O)OCCN3CCCCC3)cccc2c1=O	8.3	.
CC1CCCC(n2c(=S)[nH]c3ccccc3c2=O)C1C (centres undefined)	1.1	2
O=C1CC(N2CCN(c3ccccc3)CC2)C=C1Nc1ccc(Cl)cc1 (centres undefined)	-2.8	.
COc1ccc(-c2ccn(-c3cccc(F)n3)n2)cc1	1.7	.
O=S(=O)(NCCSCc1ccco1)c1ccc(Cl)cc1	2.5	.
CN1C/C(=C\c2ccco2)C(=O)/C(=C/c2ccco2)C1	9.6	.
CCCCc1ccc(NC(=O)CN2C(=O)CSC(C)C2=O)cc1 (centres undefined)	.	27
CCN1CCN(C(c2cccs2)C(C)NC(=O)Cc2cccs2)CC1 (centres undefined)	.	-15
CC(C)C(C(=O)NCc1ccco1)c1ccc(Cl)cc1 (centres undefined)	.	5
CCOC(=O)c1c(NC(=O)c2cc3n(n2)C(C(F)(F)F)CC(c2ccco2)N3)sc2c1CCCCC2 (centres undefined)	-1.5	.
CN(C(=O)CSc1nnc(Nc2ccccc2F)s1)C1CCCCC1	.	-11
Cc1cccc(C)c1N1C(=O)CN(C(C)C)C1=S	.	-19
COc1cccc(NC(=O)C(C)N2CCc3ccccc32)c1 (centres undefined)	.	-8
N#Cc1cccc(CSC(=N)N)c1	-0.1	.
CCCCCCSc1nc(O)c(CC)c(=O)n1-c1ccccc1	1.4	10
Fc1ccc(/C=N/n2cnnc2)cc1	.	11
Oc1ccc(-c2n[nH]c(=S)n2CC2CCCO2)cc1 (centres undefined)	2.6	-7

Entries of single compounds, quoted from the list.
COC(=O)C1=C(N)OC2=C(C(=O)CCC2)C1c1cccnc1 (centres undefined) in the list: MgrA DNA FP: .; Sa helicase inh: 14
CN(C(=O)CSc1nnc(Nc2ccccc2F)s1)C1CCCCC1 in the list: MgrA DNA FP: .; Sa helicase inh: -11
Cc1ccc(-n2nc(C)cc2NC(=O)c2ccco2)cc1 in the list: MgrA DNA FP: -1.3; Sa helicase inh: -17

A different layout for part of the listing above.
> CC(C)C(C(=O)NCc1ccco1)c1ccc(Cl)cc1 (centres undefined)
- MgrA DNA FP = .
- Sa helicase inh = 5
> CCOC(=O)c1c(NC(=O)c2cc3n(n2)C(C(F)(F)F)CC(c2ccco2)N3)sc2c1CCCCC2 (centres undefined)
- MgrA DNA FP = -1.5
- Sa helicase inh = .

(next part)
SMILES	MgrA DNA FP	Sa helicase inh
CCn1c(C)nnc1SCC(=O)Nc1cccc(Cl)c1	-0.7	4
CCC(=O)Oc1ccc(NC(=O)CSCc2ccccc2)cc1	0.5	4
O=C(NC12CC3CC(CC(C3)C1)C2)C1CCC1	-0.7	3
Clc1ccc(-n2ncc3c2ncn2nc(-c4ccccc4)nc32)cc1	0.4	10
CCc1cccc(C(C)C)c1NC(=O)c1cccs1	-1.2	.
COc1ccc(O)c(C(=O)c2cnc(Nc3nc(C)c4ccccc4n3)nc2)c1	.	-10
CCN(C(=O)CCc1ccccc1)C1CCCCC1	-9.2	4
COC(=O)CSc1n[nH]c(-c2ccc(Cl)cc2)n1	0.4	.
Cc1ccccc1COC(=O)CCCC1=NS(=O)(=O)c2ccccc2N1	-0.2	2
N#CC1=C(N)n2c(nc3ccccc32)NC1c1ccc(F)cc1 (centres undefined)	.	-15
CCOC(=O)C(C)n1ncn2cccc2c1=O (centres undefined)	0.6	16
CN1CCCc2cc(/C=C3\CCC(C4CCCC4)C3=O)ccc21 (centres undefined)	-1.3	-8
Cc1cc(=O)oc2cc(NS(=O)(=O)c3ccc4c(c3)CCO4)ccc12	1.2	.
CCCc1cnc(N2CCN(C(=O)c3ccccc3)CC2)nc1	0.0	.
CC(C(=O)N1CCCCCC1)(c1ccccc1)c1ccccc1	-3.8	12
CCC1CCC(c2nnc(-c3ccc(Br)cc3)o2)CC1 (centres undefined)	0.3	11
C1=CSC(=C2SC=CS2)S1	.	7
COC(=O)c1c(CSc2nnc(-c3ccco3)o2)nc2ccccc2c1-c1ccccc1	.	-3
CC(C)(C)n1nc2c(c1NC(=O)COc1ccccc1)CSC2	.	17
CN(C)c1ccc(-c2nc3cc(NC(=O)c4ccccc4)ccc3o2)cc1	.	5
CCOC(=O)c1c(CN(C)C)n(C)c2cc(Br)c(OC)cc12	-4.9	-6
COC(=O)c1cc(Cl)c(N)cc1OC	.	14
NC(=Nc1ccccc1)SC1CC(=O)N(c2ccccc2)C1=O (centres undefined)	-1.4	11
Cc1ccc2c(c1)c(=O)c(Br)c(C)n2Cc1ccccc1	-0.4	1
O=C(NC1CCCCC1)c1ccc(CN2CCOCC2)cc1	2.4	14
Cc1ccc(S(=O)(=O)Nc2cc(C(F)(F)F)ccc2N2CCOCC2)c(C)c1	.	-3
O=C1OC/C(=C(/O)c2ccccc2)C1=O	.	3
N#CCC(=O)Nc1cccnc1	0.2	.
O=C1OC(c2ccccc2)=N/C1=C1/OC(=O)c2ccccc21	16	14
Cc1cccc(NC(=O)c2ccc(Cl)cc2[N+](=O)[O-])n1	-2.1	.
Cc1nc(-c2ccc(/C(N)=N/O)s2)cs1	1.6	.
O=C(Nc1cccc(Cl)c1)n1nccc1-c1cc(-c2ccccc2)no1	-2.3	.
CCn1c(-c2ccc3c(c2)OCCO3)cnc1SCC(=O)c1cc(C)n(-c2ncn[nH]2)c1C	.	-13
CCCN(Cc1ccc(N(CC)CC)cc1)CC1CC1	-9.6	11
c1ccc(C2=NN3COc4ccccc4C3C2)cc1 (centres undefined)	-3.3	16
O=C(O)c1ccc(C#Cc2ccccc2)cc1	.	1
CCOC(=O)N1CCC(NC(=O)Nc2cc(C)oc2C(F)(F)F)CC1	-1.9	.
O=C(Nc1nccs1)c1ccc(Cl)s1	.	20
CN1CCC(N(C)C(C(=O)Nc2ccc(F)cc2)c2ccccc2)CC1 (centres undefined)	.	-6
Cc1cc2cc(CNC(=S)NCCc3ccccc3)ccc2n1C	3.0	8
N#C/C(C(N)=O)=C1/CCc2ccccc21	0.2	.
COC(=O)c1ccc2c(c1)C1C=CCC1C(c1cccc3ccccc13)N2 (centres undefined)	3.8	.
Cc1cncc(C(=O)NN)c1	.	-11
O=C(CSC(=S)N1CCOCC1)N1CCc2ccccc21	1.6	-7
CC(=O)Nc1ccccc1C(=O)OCC(=O)Nc1nc2ccccc2s1	.	1
CP(=O)(O)C(c1cccc(Cl)c1)C(F)(F)F (centres undefined)	-1.6	6
O=C1CSc2ccc(C(=O)N3CCN(S(=O)(=O)/C=C/c4ccccc4)CC3)cc2N1	.	-5
CCC(=O)Oc1ccc(C(=O)CC)cc1OC	3.4	-22
CCOC(=O)N1CCN(C(=O)CSCC(=O)Nc2nc(-c3cccs3)cs2)CC1	2.4	9

Only part of the results is shown; count on the stated rates, not on these rows.
